Source: PubChem (several laboratories)
eIF4H inh – human eIF4H binding inhibitors, primary screen, translation initiation inhibitor project, biochemical, uHTS, fluorescence polarization | Eukaryotic translation initiation factor 4H (Homo sapiens), Q15056 | eIF4H fluorescence polarization binding assay | inhibition, % at 35 µM | 290,000 compounds, 0.94% hits;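 active means 50% or more with normal probe brightness, or confirmed in later tests; inconclusive means above 50% with abnormal brightness, or retests that disagree; inactive means below 50% or failed in later tests; about a fifth of its hits are not listed in these tables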;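 further: calls also rest on retests at 20 µM and on dose response follow-up; 0% = protein and probe with vehicle and 100% = probe without protein; strong numbers were not always called active; many hits fall short of the cut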
Env fusion inh – inhibitors of HIV-1 Env-driven cell-cell fusion, primary screen, HeLa-JRFL effector, CEM21 target cells, luciferase; 360,000 compounds, 1.1% hits; AID 651610, 2012; inhibition, % at 12.3 µM;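 active means mean replicate inhibition score of at least 50 and every replicate individually at or above 50; inconclusive means only one of the two criteria met; inactive means mean below 50 and not all replicates reaching 50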;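 further: 0% = plate neutral controls and 100% = maraviroc near 300 nM; one replicate is shown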
CSC inhib – cancer stem cell viability inhibitors, primary screen, luminescence; cancer stem cell-like cells viability; AID 2717, 2010; inhibition, % at 7.5 µM; 300,000 compounds, 1.1% hits;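 active means mean at 75% or more and at least half the replicates too; inconclusive means mean and replicates disagree; tested in HMLE shEcad cells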;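 further: 0% = median of negative and 100% = median of positive control wells; the first replicate is given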
PABP FP inh – PABP poly(A) RNA binding inhibitors, primary screen, biochemical, fluorescence polarization, uHTS; Polyadenylate-binding protein 1 (Homo sapiens), P11940; inhibition, % at 35 µM; 290,000 compounds, 1% hits;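 active means 50% or more with normal probe brightness, or confirmed in later tests; inconclusive means above 50% with abnormal brightness, or retests that disagree; inactive means below 50% or failed in later tests; about a fifth of its hits are not listed in these tables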;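 further: calls also rest on retests at 20 µM and on dose response follow-up; controls were probe without protein and protein plus probe with vehicle; some compounds called inactive have numbers as strong as hits; many hits fall short of the cut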
Rce1 inhib – yeast Rce1p protease inhibitors, primary screen, biochemical, fluorescence, cell-free homogeneous; yeast membranes, quenched prenylated peptide cleavage fluorescence; 290,000 compounds, 0.27% hits; calls only;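 active means fall in fluorescence gain of 50% or more versus controls, with final raw signal at or below 3038400; inconclusive means same 50% fall but final raw signal above 3038400; inactive means fall in fluorescence gain under 50%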;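 further: plate controls were neutral control wells for no effect and wells lacking membranes for full effect; tested at 10 µM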
Target sequence (Q03530 whole entry, looked up): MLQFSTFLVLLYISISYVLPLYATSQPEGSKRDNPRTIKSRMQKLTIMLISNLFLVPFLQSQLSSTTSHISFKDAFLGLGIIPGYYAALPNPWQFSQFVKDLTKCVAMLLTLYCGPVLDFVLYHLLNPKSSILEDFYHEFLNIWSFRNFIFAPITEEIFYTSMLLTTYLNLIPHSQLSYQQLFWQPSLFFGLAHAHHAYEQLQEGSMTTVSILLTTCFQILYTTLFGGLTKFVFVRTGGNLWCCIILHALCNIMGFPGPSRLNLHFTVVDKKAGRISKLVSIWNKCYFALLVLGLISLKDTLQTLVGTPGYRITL
MT1-MMP act inh – blockers of MT1-MMP proenzyme processing, primary screen, HT1080 RFP-PRO-GFP cells, GFP/RFP fluorescence. Matrix metalloproteinase-14 (Homo sapiens), P50281. GFP/RFP ratio fluorescence, overnight; percent of plate control window, DMSO zero. GFP/RFP ratio change, % at 20 µM. 360,000 compounds, 0.061% hits;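 active means GFP/RFP ratio change of at least 30% with cell ATP level not reduced by more than half and red fluorescence within 50% of control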; further: strong numbers were not always called active
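Assay system – RFP-PRO-GFP reporter HT1080 cells · Compound dosing – single dose of 20 µM compound, 1% DMSO final · Incubation – overnight compound exposure at 37 °C · Measure – GFP/RFP fluorescence ratio · Benchmarks – DMSO wells and RFP-L50D-GFP cells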
UUG fidelity – modulators of yeast start codon fidelity, primary screen, whole organism, S. cerevisiae, single point, plate reader; 350,000 compounds, 0.13% hits; AID 602363, 2012; activity score, % at 18.7 µM; S. cerevisiae UUG-firefly luciferase reporter, luminescence/redox ratio;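 active means replicate mean at a twofold rise or more, about +100% in these data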;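 further: firefly luciferase made from a UUG start codon reports start codon fidelity; reporter light over untreated wells divided by growth signal over untreated wells; some hits fall short of that in this replicate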
eIF4H inh retest – second read-out of eIF4H inh, no call of its own (marks repeat the call); inhibition, %; compound at 20 µM; confirmation average;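 mean of two retest wells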
PABP FP inh retest – further read-out of PABP FP inh, marked with its call; inhibition, %; compound at 20 µM; confirmation repeats;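 mean of two retest wells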
MT1-MMP act inh RFP – further read-out of MT1-MMP act inh, marked with its call; RFP signal change, %; measured here: RFP expression control read;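 0 = vehicle wells; hits needed this value within 50% of zero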
The depositor's hits bear a star; i = inactive; ? = inconclusive; . = no result given; & = joins results of further samples. These rows are one share of the data (hit frequency here may not be typical).

Sample of the layout, 2 compounds:
SMILES	eIF4H inh	Env fusion inh	CSC inhib	PABP FP inh	Rce1 inhib	MT1-MMP act inh	MT1-MMP act inh RFP	UUG fidelity	others
CC1(C)C(=O)OC(/C=C/c2cccc([N+](=O)[O-])c2)C(C)(C)C1=O (configuration not stated)	-4	23	2	-8	i	0	-6	.
Cc1ccc2nc(SCC(=O)N3CCN(c4ccccc4)CC3)[nH]c2c1	2	9	-2	-3	i	2	1	.

This part in full (from the top)
SMILES	eIF4H inh	Env fusion inh	CSC inhib	PABP FP inh	Rce1 inhib	MT1-MMP act inh	MT1-MMP act inh RFP	UUG fidelity	others
CC1(C)C(=O)OC(/C=C/c2cccc([N+](=O)[O-])c2)C(C)(C)C1=O (configuration not stated)	-4	23	2	-8	i	0	-6	.
Cc1ccc2nc(SCC(=O)N3CCN(c4ccccc4)CC3)[nH]c2c1	2	9	-2	-3	i	2	1	.
COc1cc(-c2nnc(-c3ccccc3)o2)cc(OC)c1OC	-2	-46	-4	0	i	2	-2	-32
COc1cc(CN2CCNC(=O)C2CC(=O)NCCc2ncccc2C)cc(OC)c1 (configuration not stated)	8	-16	-10	6	i	-18	-6	.
O=C(Nc1ccccc1N1CCCCC1)c1ccc(-c2cccc(Cl)c2)o1	6	20	.	-8	i	-1	4	-10
CCOc1ccc(CCN2C(=S)N([C@@H](Cc3ccc(O)cc3)CN3CCC[C@@H]3CN3C(=S)NC[C@@H]3CC(C)C)C[C@@H]2CC(C)C)cc1	.	-56	.	.	.	-3	-7	-14
CCCCCCNc1ccc(C(=O)OCC)cc1	.	-5	.	.	.	4	9	0
Cc1ccc(S(=O)(=O)C2(C(=O)N(C)C3CCCCC3)CC2)cc1	-11	.	-4	3	i	-4	0	-1
O=C(Nc1ccccc1N1CCN(C(=O)c2ccccc2)CC1)c1ccc2c(c1)OCO2	-7	-72	4	-1	i	2	0	-15
Cc1ccc(S(=O)(=O)/N=C(/Nc2cccc(O)c2)c2ccccc2)cc1	-6	-6	2	-4	i	-2	-7	4
COc1cc(/C=N/Nc2ccccc2)ccc1OC(=O)c1cccs1	-4	-25	19	9	.	.	.	.
CC(C)(C)NC(=O)CN(CCN1CCOCC1)C(=O)CNS(=O)(=O)c1ccccc1	-3	19	3	-2	i	0	0	-6
CC(=O)NCCNC(=O)C1(C)Cc2c(-c3cccc(NC(C)=O)c3)ccnc2O1 (configuration not stated)	.	-26	.	.	.	-4	6	-4
O=C(CN1CCC(NC(=O)Nc2ccccc2-c2ccccc2)CC1)NCc1ccco1	4	-52	3	3	i	6	4	-11
COc1ccc(NC(=S)N/N=C2\CC(C)(C)Oc3ccc(OC)cc32)cc1	-7	-2	6	-2	i	4	3	-16
CCN(CC)C(=O)CSc1nnc(-c2ccc(S(=O)(=O)N3CCOCC3)cc2)n1C	-11	2	-6	0	i	2	1	-5
CCCCN1C(C(=O)Nc2cc(C)on2)=C(O)c2ccccc2S1(=O)=O	5	-23	-4	10	i	2	5	-6
c1ccc(CNc2ncnc3sccc23)cc1	-9	21	-7	0	i	-5	-22	-18
Nc1ncnc2c1nc(SCCO)n2Cc1ccccc1	4	19	-19	0	i	-2	-4	.
CCOC(=O)c1[nH]c(C)c(C(=O)NC2CCN(C(=O)OCC)CC2)c1C	6	.	-22	2	i	6	6	.

An excerpt from above in order of number of heavy atoms, lowest first.
SMILES	eIF4H inh	Env fusion inh	CSC inhib	PABP FP inh	Rce1 inhib	MT1-MMP act inh	MT1-MMP act inh RFP	UUG fidelity	others
CCOC(=O)c1[nH]c(C)c(C(=O)NC2CCN(C(=O)OCC)CC2)c1C	6	.	-22	2	i	6	6	.
COc1ccc(NC(=S)N/N=C2\CC(C)(C)Oc3ccc(OC)cc32)cc1	-7	-2	6	-2	i	4	3	-16
CC(=O)NCCNC(=O)C1(C)Cc2c(-c3cccc(NC(C)=O)c3)ccnc2O1 (configuration not stated)	.	-26	.	.	.	-4	6	-4

Continuation:
SMILES	eIF4H inh	Env fusion inh	CSC inhib	PABP FP inh	Rce1 inhib	MT1-MMP act inh	MT1-MMP act inh RFP	UUG fidelity	others
N#Cc1c(N)c2ccccn2c1C(=O)c1ccc(Br)cc1	-3	10	12	-12	i	-7	-4	-15
CCN(CC)C(=O)CSc1nnc(CNc2ccc(F)cc2)n1Cc1ccco1	0	1	7	2	i	-6	-10	-16
O=C1c2cccc3c(Cl)ccc(c23)C(=O)N1O	5	-40	26	10	i	4	1	6
N#Cc1ccccc1CSc1nc(N2CCCCC2)nc(N2CCCCC2)n1	-6	.	.	-4	i	1	-11	5
CCCn1c(C)cc(C(=O)CN2C(=O)c3ccccc3S2(=O)=O)c1C	.	67*	.	.	.	0	3	1
Cn1ncc(Cl)c1C(=O)N1CCC(Cc2ccccc2)CC1	0	.	3	2	i	-3	-5	0
COC(=O)N1C(=O)[C@@](Cc2ccccc2)(c2ccccc2)N1C(=O)OC	6	-1	22	8	i	-1	1	-10
Cc1ccc(/C=C/C(=O)c2ccccc2O)cc1	-8	-7	11	3	i	0	0	-2
O=C(COc1cc(O)c2c(=O)cc(-c3ccccc3)oc2c1)c1ccc(F)cc1	10	.	-7	-18	i	-2	-2	.
CCCCNC(=O)c1c(CSc2ccc(Cl)cc2)noc1C(=O)NCCC	.	0	25	.	i	3	-2	-14
CCc1ccc(C(C)(O)C(CN2CCOCC2)c2ccccc2)cc1 (configuration not stated)	35	16	-2	24	i	-5	-6	-9
O=C1CSC(c2cccnc2)N1CC1CC1 (configuration not stated)	-2	5	-2	-2	i	-3	-2	.
C[C@@H](C(=O)O)[C@@H]1C[C@@]1(C)[C@@H](NC(=O)OCc1ccccc1)c1ccccc1	4	0	-2	9	i	-1	3	0
CC[C@]12c3[nH]c4cc(CCC(=O)N(C)C)ccc4c3CCN1C(=O)[C@@H](CC(=O)NCc1ccco1)C[C@@H]2C(=O)N1CCN(C(=O)C2CC2)CC1	.	-4	.	.	.	1	4	7
CCc1cccc(C)c1NC(=O)c1cc(-c2ccncc2)nc2ccccc12	.	4	.	.	.	-7	-2	-15
O=C(CN1C(=O)/C(=C/c2ccccc2)SC1=S)Nc1ncc(Cc2ccccc2)s1	-2	.	1	15	i	9	5	-50
Cc1c(NC(=O)C(C)N2C(=O)C3CCCCC3C2=O)c(=O)n(-c2ccccc2)n1C (configuration not stated)	-4	-8	.	-14	i	-2	-4	.
COC(=O)[C@]1(C)N[C@H](CN(C)C(=O)NC(C)C)[C@@H]2C(=O)N(C)C(=O)[C@@H]21	.	-60	.	.	.	1	1	-14
S=c1[nH]nc(-c2ccccn2)n1/N=C/c1ccc(-c2ccccc2Br)o1	31	0	.	15	i	.	.	.
Cn1c(=O)cc(SCC(=O)NCc2ccco2)c2ccccc21	-7	-53	-1	13	i	4	3	-23
Cc1ccc(/C=C/S(=O)(=O)Nc2ccc(C)cc2)cc1	-7	-5	-10	?	i	1	3	.
CCN(c1ccccc1)S(=O)(=O)c1ccc(OC)c(NC(=O)Cc2ccc(OC)c(OC)c2)c1	.	.	-11	.	.	-1	-20	-6
Cc1cccc(-c2nc(C#N)c(NCC3CCCO3)o2)c1 (configuration not stated)	-14	-14	-15	-2	i	2	2	-8
Cc1ccc(C2=NC(C(F)(F)F)(C(F)(F)F)c3c(n(-c4ccc(F)cc4)c(=O)[nH]c3=O)N2)cc1	-2	.	-1	0	i	-6	-11	.
O=C(c1ccccc1)c1nc2c(n1O)CCCCC2	1	4	-12	6	i	-8	-4	-18
Cc1c(CN2CCC(CO)(CCOc3ccccc3)CC2)[nH]c2c(Cl)cccc12	-13	-9	48	-12	i	-7	-6	.
CCNC(=O)COC(=O)/C=C/c1ccccc1[N+](=O)[O-]	5	.	4	-3	.	3	2	7
CCCN(CCC)C1=N/C(=C\c2ccco2)C(=O)N1c1ccccc1	48	.	-20	82	i	-14	1	.	eIF4H inh retest=-6;PABP FP inh retest=4
O=C1NC(c2ccc(-c3ccccc3[N+](=O)[O-])o2)C(C(=O)c2ccc(F)cc2)C(O)(C(F)(F)F)N1 (configuration not stated)	10	-101	3	7	i	3	0	7
CCOC(=O)C1(C)CCN1C(=O)c1ccc(C(C)(C)C)cc1 (configuration not stated)	.	-16	.	.	.	3	0	-8
CCC(=O)Nc1nnc(SCC(=O)Nc2ccc3c(c2)OCO3)s1	9	21	4	1	i	-2	-1	-10
Cc1cc(C)cc(C(=O)NCC(=O)OCN2C(=O)c3ccccc3C2=O)c1	.	-32	.	.	.	-2	5	-19
CCC(=O)N1CCc2cc(Br)cc(S(=O)(=O)NCc3ccco3)c21	0	.	5	2	i	3	2	.
O=Nc1c(O)n(Cc2ccc(Cl)c(Cl)c2)c2ccccc12	7	?	84*	-5	i	-6	-11	0
COc1cc(CN2CCN(S(=O)(=O)c3ccccc3)CC2)cc(OC)c1OC	16	-7	-17	13	i	-2	-1	-3
C/C(=N\OCC(=O)Nc1ccc(Br)cc1)c1cccs1	6	6	26	17	i	0	-5	.
CCCCCCSc1cc(-c2nc3ccc(Cl)cn3c2NCCCC)ccc1OC	.	-14&5	34	.	i	-2&9	-7&-2	-17
N#Cc1ccc(N)cc1OCCCN1CCCCC1	.	31	.	.	.	3	5	-15
CCCn1ccc2c(OCC(=O)Nc3ccc(NC(C)=O)cc3)cccc2c1=O	.	-13	1	.	i	1	1	-8
O=C(Nc1c2c(nn1-c1ccc(Cl)cc1)CS(=O)(=O)C2)c1ccccc1	-9	-3	.	-10	i	-4	-1	4

An excerpt taken from the entries so far:
SMILES	eIF4H inh	Env fusion inh	CSC inhib	PABP FP inh	Rce1 inhib	MT1-MMP act inh	MT1-MMP act inh RFP	UUG fidelity	others
CC1(C)C(=O)OC(/C=C/c2cccc([N+](=O)[O-])c2)C(C)(C)C1=O (configuration not stated)	-4	23	2	-8	i	0	-6	.
Cc1ccc2nc(SCC(=O)N3CCN(c4ccccc4)CC3)[nH]c2c1	2	9	-2	-3	i	2	1	.

Additional results follow.
SMILES	eIF4H inh	Env fusion inh	CSC inhib	PABP FP inh	Rce1 inhib	MT1-MMP act inh	MT1-MMP act inh RFP	UUG fidelity	others
CC(C)c1nc2sc3c(=S)nc[nH]c3c2c2c1CCC2	-3	-70	10	-2	i	0	-5	.
CC(Oc1cccc(Br)c1)C(=O)Nc1cccc(S(=O)(=O)N2CCOCC2)c1 (configuration not stated)	.	5	-4	.	.	-2	-7	-1
CCN(C(=O)Cc1c(C(=O)O)[nH]c2ccccc12)c1ccc(OC)cc1	1	.	2	2	i	1	9	.
COc1ccc(-c2nnc(SCC(=O)c3ccco3)n2-c2ccccc2)cc1	-4	.	-2	1	i	-5	-1	.
CC(C)Cn1c(N)c(C(=O)CSc2ncnc3sc4c(c23)CCCC4)c(=O)n(C)c1=O	2	0	1	-5	i	-2	-2	.
O=C(NNC(=O)c1ccccn1)c1cccc([N+](=O)[O-])c1	16	-2	12	-1	i	7	2	.
COc1ccc(Nc2nnc(SCc3cc(=O)n4ccsc4n3)s2)cc1	75*	-23	.	31*	i	-21	-2	-9	eIF4H inh retest=75*;PABP FP inh retest=51*
